Screening results as filed in PubChem.
UCH37 inh: inhibitors of human deubiquitinating enzyme UCH37; Q9Y5K5; purified proteasome/UCH37, Ub-AMC cleavage fluorescence; inhibition, % (no concentration beside the values); 330,000 tested, 0.33% active; AID 588478;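 active means mean of two replicates above 20%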;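 further: 0% = compound-free wells with enzyme and 100% = wells lacking proteasome; stock transfer was 100 nL into about 20 µL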
Target sequence (Q9Y5K5 whole entry, looked up): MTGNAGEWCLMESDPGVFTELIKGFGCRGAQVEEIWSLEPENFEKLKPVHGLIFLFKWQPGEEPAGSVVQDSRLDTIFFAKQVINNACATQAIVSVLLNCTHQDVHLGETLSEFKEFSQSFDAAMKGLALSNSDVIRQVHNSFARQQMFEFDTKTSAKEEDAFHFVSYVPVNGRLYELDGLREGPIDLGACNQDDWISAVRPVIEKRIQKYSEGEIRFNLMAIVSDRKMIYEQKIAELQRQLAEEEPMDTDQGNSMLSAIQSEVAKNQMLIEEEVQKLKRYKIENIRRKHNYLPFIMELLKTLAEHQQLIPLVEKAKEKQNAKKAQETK
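system = Proteasome-associated human UCH37 deubiquitinase | amount = 0.15 nM proteasome as dispensed | medium = pH 7.4 Tris-HCl (50 mM) with ovalbumin, ATP-MgCl2, DTT | incubation = 30 min preincubation with enzyme, 25 min cleavage at room temperature | detection = AMC fluorescence 355/460 nm | read-out basis = percent inhibition | controls = no-proteasome and no-compound wells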
Ecoli growth: inhibitors of Escherichia coli growth | 330,000 tested, 0.21% active | OD600 absorbance (test concentration not listed) | OD600, 23 h; active compounds read low | AID 1053175;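 active means OD600 absorbance below the run mean of sample wells minus 3.6 SD, in any replicate, cut at about 0.56 in these data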;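 further: stock transfer was 300 nL into about 60 µL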
LANA-H2B inh: blocks KSHV LANA binding to histone H2A/H2B; Q9QR71; cell-free LANA-H2A/H2B peptide, fluorescence polarization; inhibition, % (no concentration beside the values); 320,000 tested, 0.6% active; AID 2629; in the data active means inhibition mostly above about 10%, no sharp cut-off; inactive means mostly below about 6.7%;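 further: stock transfer was 7.5 nL into about 10 µL; 0% = median of vehicle wells and 100% = median of positive control wells; one replicate is shown; the record names a cut of 25% in any replicate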
FGF22 binding: shifts melting point of recombinant human FGF22; Q9HCT0; recombinant FGF22 thermal shift, SYPRO orange fluorescence; percent of sucrose octasulfate shift, DMSO zero; calls only at 9.99 µM; 340,000 tested, 1.5% active; AID 651658;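 active means melting point raised past a set limit in the mean and every replicate; three in four hits are not shown here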
Target sequence (Q9HCT0 whole entry, looked up): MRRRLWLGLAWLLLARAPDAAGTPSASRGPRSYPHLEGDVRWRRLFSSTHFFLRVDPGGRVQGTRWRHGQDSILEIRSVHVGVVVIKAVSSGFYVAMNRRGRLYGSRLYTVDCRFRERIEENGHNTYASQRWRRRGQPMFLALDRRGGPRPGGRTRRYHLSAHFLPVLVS
B2AR ag: human beta-2 adrenergic receptor agonism by FAP. Am2.2-beta2AR cells, FAP receptor internalization, flow cytometry; reference of the scale not given here. 340,000 tested, 0.43% active. AID 504454. response, % (concentration not given with the values);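 active means response above a set limit, near 3 SD of response in nonfluorescent compounds, cut at about 42% in these data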;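 further: stock transfer was 100 nL into about 11 µL; a reference agonist was the positive control; negative values mostly stem from fluorescent compounds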
HNF4A DNA FP: change in binding of human HNF4 alpha to DNA; 360,000 tested, 0.3% active; HNF4a-FITC DNA binding, fluorescence polarization, 1 h; activity change, % at 10 µM; in the data active means activity change above about 30%, passing the limit was not always enough;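 further: controls were the assay level and a saturating level of protein; the project sought stronger binding though the title names inhibitors; some compounds called inactive have numbers as strong as hits; positive values seem to mean higher polarization but the record does not say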
Target sequence (P41235 whole entry, looked up): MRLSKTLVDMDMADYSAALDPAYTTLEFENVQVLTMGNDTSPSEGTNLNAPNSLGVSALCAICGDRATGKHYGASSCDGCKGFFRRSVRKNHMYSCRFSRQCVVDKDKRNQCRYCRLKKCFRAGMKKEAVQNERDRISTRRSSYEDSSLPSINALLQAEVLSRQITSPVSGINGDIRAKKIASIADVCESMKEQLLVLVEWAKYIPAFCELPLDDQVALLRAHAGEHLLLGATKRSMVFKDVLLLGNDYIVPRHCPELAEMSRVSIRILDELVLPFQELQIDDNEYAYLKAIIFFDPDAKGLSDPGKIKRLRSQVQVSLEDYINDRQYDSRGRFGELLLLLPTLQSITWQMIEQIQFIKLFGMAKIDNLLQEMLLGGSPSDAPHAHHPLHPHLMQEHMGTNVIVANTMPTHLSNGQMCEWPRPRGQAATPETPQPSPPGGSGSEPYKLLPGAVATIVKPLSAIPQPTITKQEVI
ALR inh: inhibitors of human sulfhydryl oxidase ALR | purified ALR, DTT oxidation, H2O2 HRP-luminol luminescence | P55789 | inhibition, % (test concentration not listed) | 290,000 tested, 3.8% active;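 active means mean and each replicate at 75% or more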;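 further: stock transfer was 7.5 nL into about 7.5 µL; 0% = neutral wells and 100% = wells with inactivated enzyme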
* hit, by the source's call; i = inactive; nt = not tested or not shown.

SMILES	UCH37 inh	Ecoli growth	LANA-H2B inh	FGF22 binding	B2AR ag	HNF4A DNA FP	ALR inh
Cc1ccc(Nc2ccc3nonc3c2[N+](=O)[O-])cc1	-0.3	0.71	0.3	i	-18	4.3	-14
C[C@@H](NC(=O)c1[nH]cnc1C(=O)Nc1ccccc1)c1ccccc1	0.3	nt	-1.5	i	16	-2.0	-4
Cn1c(SCC(=O)NC2CCCC2)nnc1-c1ccco1	0.1	0.66	5.8	i	-12	1.2	-2
COc1ccc(-c2ccc(=O)n(CC(=O)Nc3cccc(O)c3)n2)cc1OC	1.2	0.71	-0.4	nt	-2	3.4	-3
O=C(Cc1ccccc1)NNC(=O)Cc1ccccc1	2.6	0.65	-4.7	i	3	-1.1	-12
CCNc1nc(N)nc(-c2cc(Cl)ccc2O)n1	-73	0.65	1.9	nt	5	-0.8	2
O=C(NC(=S)Nc1ccc(N2CCOCC2)cc1)c1cccc(Cl)c1	1.6	0.65	-9.0	i	-5	0.2	4
Cc1ccccc1OC(C)C(=O)NC1CCCC1 (centres undefined)	28*	0.7	11	nt	-7	1.2	-5
CC(C)=CCC/C(C)=C/CNC(=O)C[C@H]1C[C@H](C(=O)N2CCCCC2)[C@@]2(CCc3ccccc3)c3[nH]c4cc(-c5ccco5)ccc4c3CCN2C1=O	-36	0.71	nt	nt	2	15	nt
CCOC(=O)C1=C(O)/C(=C\c2ccc(CNC(=O)C(=O)Nc3ccccc3)o2)N=C1C	-2.1	nt	1.2	nt	24	1.1	-6
Cc1ccc(S(=O)(=O)N2CCC(C(=O)NCCCn3ccnc3)CC2)cc1	1.7	0.68	-1.3	i	-5	-1.6	-10
COc1ccc2c(c1)CCc1c(C(=O)NCc3cccnc3)noc1-2	-1.2	0.63	4.2	i	-3	1.6	-14
COCc1[nH]nc2c1C1(CCSCC1)C(C#N)=C(N)O2	5.7	0.67	2.6	nt	2	-4.0	33
O=C1CCCc2ccccc2N1Cc1ccc(F)cc1	0.7	0.64	-0.8	i	0	5.1	nt
Cc1nc(-c2cccc(C(F)(F)F)c2)sc1C(=O)O	2.4	0.68	-1.7	i	0	2.7	26

Reformatted: entries from further up.
Cc1nc(-c2cccc(C(F)(F)F)c2)sc1C(=O)O
  UCH37 inh: 2.4 | Ecoli growth: 0.68 | LANA-H2B inh: -1.7 | FGF22 binding: i | B2AR ag: 0 | HNF4A DNA FP: 2.7 | ALR inh: 26
Cc1ccccc1OC(C)C(=O)NC1CCCC1 (centres undefined)
  UCH37 inh: 28* | Ecoli growth: 0.7 | LANA-H2B inh: 11 | FGF22 binding: nt | B2AR ag: -7 | HNF4A DNA FP: 1.2 | ALR inh: -5

Following part
SMILES	UCH37 inh	Ecoli growth	LANA-H2B inh	FGF22 binding	B2AR ag	HNF4A DNA FP	ALR inh
CC1CC(C)CN(C(=O)COC(=O)CCc2nc3ccccc3c(=O)[nH]2)C1 (centres undefined)	-2.3	0.7	1.5	nt	1	4.1	nt
Cc1c(C)c2cc(Cl)c(O)c(CN3CCN(C)CC3)c2oc1=O	i	0.68	-3.1	nt	-5	-2.0	20
CC(=O)OC1C([N+]2(C)CCCCC2)C[C@H]2C3CC[C@H]4C[C@H](OC(C)=O)C([N+]5(C)CCCCC5)CC4(C)[C@H]3CCC12C (some centres undefined)	1.2	nt	1.1	i	1	0.2	-6
CCc1ccc(OCC(=O)O/N=C(\N)Cc2ccc([N+](=O)[O-])cc2)cc1	6.1	0.69	-1.8	nt	-2	0.7	-2
C=CCc1cc(Cl)ccc1OCCNCCN1CCOCC1	2.1	0.66	0.1	i	-1	1.5	1
CCOc1ccc(S(=O)(=O)N2CCC(C(=O)Nc3cc(S(C)(=O)=O)ccc3Cl)CC2)cc1	2.1	0.67	2.6	i	-3	-1.7	nt
COc1ccc(CCNC2CCN(C)CC2)cc1OC	4.1	0.72	-4.1	nt	8	1.7	-2
O=c1[nH]c(SCc2ccccc2F)nc2ccccc12	0.7	0.7	-0.1	i	0	-0.3	-14
COc1ccccc1C(=O)OCCN1CCOCC1	4.9	0.68	2.6	nt	1	0.5	-1
O=C(O)CN1CCCC1=Nc1ccccc1	3.9	0.69	1.4	nt	9	2.4	-7
COc1ccc(CCNC(=O)Cn2c(=O)n(-c3ccc(F)cc3)c(=O)c3sccc32)cc1OC	0.8	0.71	nt	i	-6	2.0	nt
Cc1cc(C)nc(N(C#N)CCOc2ccccc2)n1	0.0	0.66	1.6	nt	0	5.1	-13
S=c1[nH]nc(C2CCCCC2)n1/N=C/c1ccc(Br)s1	nt	nt	-1.0	nt	-12	35*	3
COc1ccc(/C=C(\C#N)C(=O)Nc2ccccn2)cc1	-19	0.69	-3.1	i	-9	0.3	2
CCOc1ccc(N2CC(C(=O)Nc3ccc(N4CCOCC4)cc3)CC2=O)cc1 (centres undefined)	3.0	0.68	6.9	nt	10	-10	-4

Part of the list above, showing only Ecoli growth and HNF4A DNA FP:
Structure	Ecoli growth	HNF4A DNA FP
Cc1c(C)c2cc(Cl)c(O)c(CN3CCN(C)CC3)c2oc1=O	0.68	-2.0
CC(=O)OC1C([N+]2(C)CCCCC2)C[C@H]2C3CC[C@H]4C[C@H](OC(C)=O)C([N+]5(C)CCCCC5)CC4(C)[C@H]3CCC12C (some centres undefined)	nt	0.2

(cont.)
SMILES	UCH37 inh	Ecoli growth	LANA-H2B inh	FGF22 binding	B2AR ag	HNF4A DNA FP	ALR inh
C=CCNC(=O)NC(=O)COC(=O)C(C)Oc1ccc(Cl)cc1Cl (centres undefined)	-0.2	0.63	0.7	i	-7	2.1	3
O=C(COc1ccccc1Cl)N1CCN(c2ccc([N+](=O)[O-])c(N3CCOCC3)c2)CC1	6.4	0.71	-1.0	nt	6	0.9	3
Cc1ccc(NC(=O)CSc2nc3sc(C)cc3c(=O)n2C)cc1	-0.9	0.69	0.7	i	7	-0.8	7
Cc1cc(N2CCCC2)ccc1NC(=O)COc1ccc(Cl)cc1	-1.8	0.72	3.7	i	11	13	0
CCOC(=O)c1cc(-c2ccccc2)sc1NC(=O)CSc1nnnn1C	3.5	0.66	-1.1	nt	-6	0.5	-2
O=C(O)C=C(Br)Br	4.9	0.7	-1.8	i	9	-0.3	14
CC(=O)N1CCSc2ccc(S(=O)(=O)NCCc3ccc(Cl)cc3)cc21	0.4	0.67	-1.2	i	-5	-2.6	3
COc1ccc2oc(=O)cc(CN3CCN(Cc4ccc(OC)c(OC)c4OC)CC3)c2c1	-17	0.68	5.4	i	-8	6.8	-6
CCCc1cc(=O)oc2cc(OCC(=O)Nc3cc(C)on3)ccc12	-19	0.71	2.6	nt	-6	-2.5	-6
Oc1ccc(-c2csc(-c3c[nH]c4ccccc34)n2)c(O)c1	6.1	0.65	-0.9	nt	-10	2.3	5
O=C(COC(=O)c1cc(=O)[nH]c2ccccc12)Nc1ccc(Cl)c(S(=O)(=O)N2CCOCC2)c1	-13	0.66	nt	i	1	1.6	nt
CC1(C)CC(=O)C=C(NCCc2ccccc2)C1	-0.4	0.66	1.3	i	-1	-0.1	1
COc1ccc(NC(=O)CSc2ccc(NC(C)=O)cc2)cc1S(=O)(=O)N1CCCCC1	-0.4	0.67	-0.8	nt	0	-4.7	99*
O=c1[nH]c(C2CCN(S(=O)(=O)/C=C/c3ccccc3)CC2)nc2c1nnn2Cc1ccc(F)cc1	4.7	0.68	-4.5	i	-7	-3.0	3
NC(=O)c1cc([N+](=O)[O-])ccc1NCc1cccc([N+](=O)[O-])c1	1.8	0.69	2.9	i	-3	-3.5	-1
Nc1cccc(Oc2ccc([N+](=O)[O-])cc2)c1	7.1	0.66	1.6	i	-6	0.0	-4
CCN(C(=O)COC(=O)c1ccc(-n2c(C)ccc2C)cc1)c1c(N)n(Cc2ccccc2)c(=O)[nH]c1=O	1.1	0.64	nt	i	-1	-2.5	nt
Cc1cc(C)c(C#N)c(N2CCN(c3ccccc3)CC2)n1	-4.8	0.68	2.8	i	2	-1.1	73
NC(=O)CC(NC(=O)c1ccc(Br)cc1)c1ccc(N2CCC(Cc3ccccc3)CC2)c([N+](=O)[O-])c1 (centres undefined)	4.5	0.69	5.4	i	1	-2.3	-3
CC(C)NS(=O)(=O)c1ccc(OCC(=O)Nc2cccc3ccccc23)cc1	1.6	0.7	1.1	nt	7	3.9	-20
COCCNC(=S)N1CCN(c2nc(-c3cccc(OC)c3)cs2)CC1	5.0	0.69	-5.2	i	3	-0.6	-6
COc1ccc(-c2cc(-c3ccc(OC)cc3)[nH]n2)cc1	1.8	0.68	-0.9	nt	8	-4.6	4
O=C(COc1ccc(Cl)cc1)Nc1ccccc1CO	5.4	0.77	3.5	nt	-7	-3.2	-13
O=C(N/N=C/c1ccccc1[N+](=O)[O-])c1ccc(COc2ccccc2-c2ccccc2)cc1	nt	nt	-1.7	nt	-4	-2.4	-18
O=C(Nc1nc(-c2ccc(F)c(F)c2)cs1)Nc1ccc(F)cc1F	2.7	0.66	3.5	i	0	10	-2
Cc1cc2c(cc1C)N(C(=O)CSC1=NCCS1)C(C)(C)c1ssc(=S)c1-2	8.9	0.74	-1.5	nt	0	4.9	-4
N#CC1=C(N)Oc2n[nH]c(-c3ccccc3)c2C1c1cccc(OC(=O)N2CCOCC2)c1 (centres undefined)	5.1	0.66	0.9	nt	-3	-0.2	22
CCCN(CC(=O)Nc1ccc(F)c(F)c1F)CC(=O)Nc1c(C)n(C)n(-c2ccccc2)c1=O	1.7	0.62	0.0	i	-10	1.0	3
COCC(C)OC(=O)c1c(N)n(-c2ccc(OC)c(OC)c2)c2nc3ccccc3nc12 (centres undefined)	-7.6	0.61	1.4	nt	nt	nt	-33
CC(C)NC(=O)CN(C)S(=O)(=O)c1ccc(F)cc1	2.6	0.72	-1.0	nt	-4	-4.8	-2
COc1ccc(COC(=O)C2=C(C)NC(=O)NC2c2ccccc2)cc1 (centres undefined)	5.2	0.65	0.6	i	-2	-0.8	nt
COc1ccc(Nc2c3c(nc4ccccc24)CCC3)cc1	8.3	0.57	-9.9	i	0	5.9	99*
CN(CC(=O)Nc1ccc(F)c(F)c1F)C(=O)C1CCCC1	5.5	0.69	nt	i	-4	-3.2	nt
O=C(c1cccc(C(=O)N2CCN(c3ccccc3F)CC2)c1)N1CCN(c2ccccc2F)CC1	2.9	0.66	1.4	nt	4	1.6	-1
O=C(CC1SC(N2CCCCC2)=NC1=O)Nc1ccc(C(=O)NCc2ccccc2)cc1 (centres undefined)	5.3	0.72	0.6	i	1	0.8	0
CC1CCN(S(=O)(=O)N2CCC(C(=O)NCc3cccs3)CC2)CC1	3.4	0.66	-2.9	i	5	-2.5	-5
CCCS(=O)(=O)c1c(S(=O)(=O)CCC)c2cnccn2c1C(=O)c1ccc(F)cc1	3.7	0.69	nt	i	3	0.1	nt
Cc1ccc(N(C(=O)Cn2nnc(-c3ccc(C)o3)n2)C(C(=O)NC2CCCC2)c2ccncc2)cc1 (centres undefined)	2.2	0.69	-1.7	i	2	-0.4	nt
COc1ccccc1Nc1ncc(C(=O)N2CCN(Cc3ccc(OC)c(OC)c3OC)CC2)c2ccccc12	-18	0.72	1.9	i	11	3.0	nt
CCOc1ccc(CCNC(=O)C2CCN(c3nn4c(=O)cc(C)nc4s3)CC2)cc1OCC	-1.7	0.73	-4.7	nt	0	1.1	nt
CCC(=O)NCCc1nc2ccccc2n1Cc1ccccc1	2.1	0.68	-2.8	nt	-2	-2.9	-2
COc1ccccc1CCN=C(N)NS(=O)(=O)c1cc(F)ccc1F	2.2	0.7	0.0	i	-2	4.0	-28
Cc1ccc(/C=C2\SC(=S)N(CCC(=O)NCCCN3CCOCC3)C2=O)cc1	4.1	0.66	-3.1	i	-1	3.0	-7
Nc1ccc(/C=C/c2ccc3ncccc3c2)cc1	-69	0.62	0.9	i	-1	5.4	-7
COc1ccccc1/C=N/OCc1cc(C(C)=O)ccc1OC	nt	nt	9.3	i	-18	1.9	2
O=C(CCS(=O)(=O)c1ccc(Br)cc1)N1CCCCCC1	3.6	0.72	0.9	i	-1	-31	-12
O=C1CC(c2ccccc2)Cc2nc3ncnn3cc21 (centres undefined)	-0.2	0.67	-0.3	i	8	-1.6	-19
COc1ccc(C(=O)Nc2ccc(S(=O)(=O)NC(C)=O)cc2)cc1[N+](=O)[O-]	0.4	0.7	-2.7	i	4	-4.0	99*

These rows are one share of the data; the hit share may differ from the screen's.
